# Vaccinia mCherry – inhibitors of vaccinia virus infection (mCherry reporter signal); Potency, µM (titrated, usually from 36.5 µM), for inactives: at the top dose activity change, negative = inhibition, actives largely listed as inhibitors; Vaccinia virus mCherry reporter infection, fluorescence; about a quarter of the inactives have no number; hit rate 0.63% among 310,000; AID 720579; active = well fitted inhibition curve with a large enough effect; inconclusive = small, poorly fitted or top-dose-only effect; inactive = no such curve, though single readings can be large or run the other way; tested in A549 cells; further: nearly all actives have a fitted effect of over 35% in size; inactives centre near -10
# Vaccinia Venus – inhibitors of vaccinia virus (Venus reporter); Vaccinia virus Venus reporter expression, fluorescence; Potency, µM (doses to about 36.5 µM), for the others: at the highest dose activity change, negative = inhibition, hits mostly inhibitors; hit rate 0.46% among 330,000; active means well fitted inhibition curve with a large enough effect; inconclusive means small, poorly fitted or top-dose-only effect; inactive means no such curve, though single readings can be large or run the other way; tested in A549 cells; further: nearly all actives have a fitted effect of over 30% in size; inactives centre near -10
# * marks the source's active call; other numbers are inactive results; i = inactive; u = inconclusive; x = no result given; & = joins results of further samples. On the % scale 0 is the no-effect control and ±100 the full control effect; potency means the concentration at half of the fitted maximal effect. Rows were taken by chance; any-hit rate near 0.88%.
molecule	Vaccinia mCherry	Vaccinia Venus
OC12CCCCC1C(c1ccccc1)NCC2 (centres undefined)	i	-2.9%
CCOc1ccc(CNC(=O)c2ccccc2NC(=O)C2=CSCCO2)cc1	-17.3%	-15.8%
O=C1C=C(c2cccc(CO)c2)C[C@@H](c2ccc(Cl)cc2)C1	-10.4%	-14.9%
CCN(CC)C1Oc2cc3c(cc2C(c2cc(OC)c(O)c(OC)c2)C1C)OCO3 (centres undefined)	u	-28.3%
Cn1c(COc2ccc(Br)cc2)nnc1SC1CCc2ccccc2C1=O (centres undefined)	-20.6%	-7.5%
Cc1nn(C)cc1CNC(=O)c1cccc(F)c1	i	2.3%
CC[C@@H](C)[C@@H](CO)NC(=O)[C@H]1O[C@@H](n2cnc3c(N)ncnc32)[C@H](O)[C@@H]1O	17.7%	-2.0%
Cc1cc(N2CCN(C)CC2)n2nc(-c3ccc(Cl)cc3)nc2n1	7.94µM*	u
CCC(C)(C)n1nnnc1C(c1cc2cc(C)ccc2[nH]c1=O)N1CCCC1 (centres undefined)	i	-3.2%
Cc1ccc(S(=O)(=O)N2CCC(C(=O)Nc3cc(C)ccc3C)CC2)cc1	-25.2%	-13.0%
C[C@H](CO)N1C[C@H](C)[C@@H](CN(C)C(=O)Nc2ccccc2)Oc2cc(Br)ccc2S1(=O)=O	i	-12.4%
COCC(=O)Nc1cc(C(=O)N2CCc3c([nH]c4ccccc34)C2)cc2nc(-c3ccccc3)n(C)c12	-11.5%	-6.4%

# Reprinted from the part before: two entries; new compounds follow.
molecule	Vaccinia mCherry	Vaccinia Venus
C[C@H](CO)N1C[C@H](C)[C@@H](CN(C)C(=O)Nc2ccccc2)Oc2cc(Br)ccc2S1(=O)=O	i	-12.4%
COCC(=O)Nc1cc(C(=O)N2CCc3c([nH]c4ccccc34)C2)cc2nc(-c3ccccc3)n(C)c12	-11.5%	-6.4%
Cc1c[n+]([O-])n(-c2ccc(C(=O)O)cc2)n1	x	u
O=C(N/N=C/c1ccc(F)cc1)c1cc[n+]([O-])cc1	-10.0%	6.4%
NNC(=O)c1sccc1OCc1ccc(Cl)cc1Cl	-6.9%	-11.4%
CC(=O)c1ccc(NC(=O)c2ccc(S(=O)(=O)N3CCCC3)cc2)cc1	-15.3%	-10.5%
CCOC(=O)c1c(S(=O)(=O)Nc2ccc(CN3CCC(C)CC3)cc2)c(C)n(C)c1C	-20.0%	-12.5%
COC(=O)c1nc(-c2ccccc2)oc1N1CCOCC1	i	-14.9%
COc1cc2ccccc2cc1C(=O)Nc1ccccc1C	i	-19.3%
CC1CCCCC1NC(=O)Cn1cnc2ccccc2c1=O (centres undefined)	x	-20.1%
CC1(OC(=O)c2cccs2)C(=O)C=C2C=C3CCCN3C=C2C1=O (centres undefined)	i	-8.8%
COc1ccccc1-c1nnc(C2CCN(C(=O)c3cccc(Cl)c3)CC2)o1	-3.7%	-8.0%
O=C(N/N=C/C(Br)=C/c1ccccc1)c1cccnc1	-19.8%	-23.1%
N=C1C(c2nc3ccccc3s2)=C(O)CN1c1ccccc1	i	-22.5%

# The listing continues:
molecule	Vaccinia mCherry	Vaccinia Venus
N#Cc1ccccc1NC(=O)CN1CCN(Cc2ccccc2)CC1	-16.5%	-12.7%
COc1ccc(CCN(C(=O)COc2ccccc2)c2nc(-c3ccccc3)cs2)cc1OC	-18.2%	-15.6%
Cn1cc(CNCc2ccccc2OCC(O)CN2CCc3ccccc3C2)cn1 (centres undefined)	-15.1%	-21.0%
Cc1cc(=O)oc2c3c(cc(OCC(=O)NCCN4CCOCC4)c12)OC(C)(C)CC3	8.2%	0.3%
CC1=C(C(=O)NCc2ccc(Cl)cc2)C2(CCC(C)CC2)OC1=O (centres undefined)	-5.1%	-13.9%
Cc1ccc(S(=O)(=O)CCSc2nc(C)cc(C)c2C#N)cc1	10µM*	10µM*
O=C(COc1ccc([N+](=O)[O-])cc1Cl)N1CCOCC1	i	-12.6%
COc1ccc([N+](=O)[O-])cc1NC(=O)Cc1ccccc1Cl	-2.6%	-14.9%
COC(=O)Nc1nn(-c2ccc(OC)cc2)c(=O)c(C#N)c1C	i	-9.7%
Cc1ccc(S(=O)(=O)N2CCN(CC(=O)NC(=O)NCc3ccccc3)CC2)cc1C	-11.7%	-10.8%
CCCCCN(C(=O)CCC(=O)OCC(=O)Nc1cccc(CC)c1)c1c(N)n(CCCC)c(=O)[nH]c1=O	-15.7%	-27.6%
Cc1ccc(-n2ncc3c(N(CCO)Cc4ccccc4)ncnc32)cc1	-9.7%	-13.5%

# Continued.
molecule	Vaccinia mCherry	Vaccinia Venus
CCOC(=O)c1[nH]c(C)c(C(=O)Nc2ccc3c(c2)CCC3)c1C	-21.4%	-22.1%
O=C(O)c1cnn(-c2ccccc2)c1C(F)(F)F	-3.6%	-8.9%
COc1ccc(S(=O)(=O)N(CC(=O)NN=C2CCN(C)CC2)c2cc(Cl)ccc2OC)cc1OC	-7.8%	5.6%
COC(=O)C1C(O)CC[C@@H]2CN3CCc4c([nH]c5ccccc45)C3C[C@@H]12 (some centres undefined)	-6.8%&-2.8%	3.3%&-10.5%
O=C(COc1ccc(Cl)cc1)NCc1nnc(SCC(=O)Nc2ccccc2)o1	4.2%	8.4%
Cc1ccc(NC(=O)C2CCCN(c3nnc(C)c4c(C)n(-c5ccccc5)nc34)C2)cc1Cl (centres undefined)	u	11.2µM*
CN(C)c1ccc(NC(=O)Nc2nnc([C@H]3C[C@H](O)[C@@H](CO)O3)s2)cc1	i	0.8%
CCOc1ccc(CC(=O)Nc2c(C(=O)c3ccccc3)oc3ccc(Cl)cc23)cc1OCC	-2.4%	-3.0%
O=C(Nc1cccc(Cl)c1N1CCCC1)c1cccc(-c2cc3ccccc3oc2=O)c1	-8.6%	-8.1%
O=C(CN1CCN(c2ccc(F)cc2)CC1)Nc1ccccc1[N+](=O)[O-]	-7.5%	-11.7%
O=C(C1CCCCC1)N1CCN(c2ncccn2)CC1	-14.5%	-0.5%
CCOC(=O)c1cc(-c2ccccc2)n(CCCC(=O)Nc2cccc(C)c2)c1C	-19.4%	-19.9%

# The list goes on:
molecule	Vaccinia mCherry	Vaccinia Venus
CCCc1nc2nc(C)c(NS(=O)(=O)c3ccc(F)cc3)c(=O)n2[nH]1	-12.7%&-8.3%	1.4%&-9.6%
COc1cccc(CC(=O)Nc2ccc3c(c2)c(=O)n(C)n3-c2ccc(C(C)(C)C)cc2)c1	u	-23.4%
O=C(CCN1CCN(CC(=O)Nc2ccccc2Cl)CC1)Nc1ccccc1F	x	-29.2%
CC(C)N(C(=O)Cn1cc(S(=O)(=O)CC(=O)NCc2ccc(F)cc2)c2ccccc21)C(C)C	-5.0%	-11.1%
COc1ccc(C(=O)N2CCC3(CC2)c2ccccc2[C@@H](NC(=O)c2ccccn2)[C@@H]3OC)c(O)c1	-19.4%	-2.2%
COc1cccc2sc(N(CCCN(C)C)C(=O)c3ccc(S(=O)(=O)N4CCc5ccccc5C4)cc3)nc12	u	u
COCCn1c(C)nnc1SCC(=O)NNC(=O)c1ccc(Br)cc1	-13.5%	-4.7%
CCOC(=O)c1cc2c(=O)n3ccccc3nc2n(CC(C)C)c1=NC(=O)C(C)Oc1ccccc1 (centres undefined)	-5.3%	-20.3%
C=C1CC[C@H](O)C/C1=C/C=C1\CCC[C@]2(C)[C@@H]([C@H](C)/C=C/[C@H](C)C(C)C)CC[C@@H]12	-27.1%	-21.1%
CN1CCN(C(=O)OC2CC3CC2[C@H]2CCCCN2C3=O)CC1 (some centres undefined)	i	0.9%
O=C(COc1ccc(S(=O)(=O)N2CCOCC2)cc1)N1CCN(c2ccccc2)CC1	i	-12.5%
O=C(CN(C(=O)c1csnn1)c1ccccc1)NCCc1ccccc1	-12.3%	-2.6%

# Continued.
molecule	Vaccinia mCherry	Vaccinia Venus
CN(Cc1cc2ccccc2[nH]c1=O)S(=O)(=O)c1ccccc1	-20.9%	-20.5%
OC(c1ccc(Cl)cc1)C(CN1CCOCC1)c1ccccc1 (centres undefined)	-14.1%	-18.3%
N#Cc1nc(-c2ccc(OCc3ccc(Cl)cc3)cc2)oc1NCc1cccnc1	-17.0%	-14.7%
Cc1nc(-c2ccccn2)nc(SCC(=O)c2ccccc2)c1Cl	u	u
COCc1ccc(CN2CCOc3c(O)cc(-c4cc(C)c5ccc(F)cc5n4)cc3C2)o1	-18.1%	-14.9%
Cc1ccc(/C=C/C(=O)O)cc1S(=O)(=O)Nc1ccccc1C(=O)O	9.1%	0.2%
CCn1cc(C(=O)N2CCN(c3ccc(C)cc3)C(C)C2)c(=O)c2cc(S(=O)(=O)N3CCCC3)ccc21 (centres undefined)	-3.5%	-5.5%
CNC(=O)C1CCN(S(=O)(=O)c2c(C)noc2/C=C/c2cccc(OC)c2)CC1	-0.1%	-8.4%
C#CCNC(=O)C1=C[C@H](c2coc3ccccc3c2=O)C[C@H](OCCCCO)O1	-17.8%	-5.9%
CC1(c2nnnn2Cc2ccccc2)CCC(=O)N1CCOc1ccccc1 (centres undefined)	-13.0%	-3.3%
CCCC(=O)Nc1nnc(CC(=O)OCC)s1	x	-2.1%
O=C(Nc1nnc(-c2ccc(F)cc2)s1)C1CCN(S(=O)(=O)c2ccc(Cl)cc2)CC1	-15.8%	-10.0%

# (cont.)
molecule	Vaccinia mCherry	Vaccinia Venus
O=C(O)c1nc(-c2ccccc2)n(-c2cccc(C(F)(F)F)c2)n1	8.4%	-7.9%
Cc1ccccc1OCC(=O)NC(Cc1c[nH]c2ccccc12)C(=O)O (centres undefined)	-6.7%	-5.2%
Cc1cc(C)c(S(=O)(=O)n2c([N+](=O)[O-])cnc2C)c(C)c1	-13.6%	-11.6%
COc1cccc2cc(C(=O)Nc3ccc(S(=O)(=O)NCC4CCCO4)cc3)c(=O)oc12 (centres undefined)	u	-0.6%
Cc1ccc(-c2cn3nc(N4CCCC(C(=O)Nc5ccc(F)cc5)C4)sc3n2)cc1 (centres undefined)	-1.8%	-13.1%
CC1=CC(=O)OC2CC3OC4C[C@@H](C)C5OC6CC7O[C@]8(C)C/C=C\C9OC%10CC%11OC(CC(C)C%12OCCO%12)CC(O)[C@]%11(C)OC%10CC9OC8C[C@]7(C)O[C@]6(C)CCC5OC4C[C@]3(C)OC12 (some centres undefined)	i	-17.8%
CCCCOC(=O)c1ccc(NC(=O)C(=O)CC(=O)c2ccc(OC)cc2)cc1	-28.7%	-8.3%
COC(=O)c1nc(NC(=O)C(C)(C)C)n[nH]1	-14.6%	-9.9%
COc1ccc(Cl)cc1NC(=O)C(C)NC(c1ccccc1)c1ccccc1 (centres undefined)	i	-13.2%
Cc1nc2ccc(S(=O)(=O)N(C)CC(=O)Nc3cccc(C(F)(F)F)c3)cc2s1	-14.1%	-25.8%
Cc1ccc(-c2noc(-c3ccccc3Br)n2)cc1	x	-10.6%
O=C(NCc1ccccc1Br)c1ccc2c(c1)OCCO2	-17.7%	-7.2%

# (further entries)
molecule	Vaccinia mCherry	Vaccinia Venus
Cc1oc(-c2ccccc2F)nc1CS(=O)(=O)CC(=O)N1CCN(c2ccccc2)CC1	u	u
CSCCC1NC(=O)NC1=O (centres undefined)	x	9.2%
CCc1ccc(-c2csc(NC(=O)C3CC(=O)N(c4ccc5c(c4)OCCO5)C3)n2)cc1 (centres undefined)	-28.1%	u
Cc1nc(N2CCN(C(=O)c3ccco3)CC2)nc2c1C(=O)CC(C)C2 (centres undefined)	-12.4%	-7.5%
CN=c1sc2ccccc2n1CC(O)COc1ccccc1 (centres undefined)	-23.8%	-22.2%
CC12CCC(C(=O)N/N=C/c3ccc(O)cc3O)(OC1=O)C2(C)C (centres undefined)	14.1µM*	-26.7%
Cc1ccc(CN2[C@@H](CC3CCCCC3)COCCS2(=O)=O)cc1	-3.8%&-13.6%	-19.5%&-11.2%
Cc1ccc(-c2nnc(Nc3ccc(CC(N)=O)cc3)c3ccccc23)cc1S(=O)(=O)NCC1CCCO1 (centres undefined)	i	-8.2%
CCOc1ccccc1/C=C(/NC(=O)c1ccccc1)C(=O)NCC(=O)O	-13.8%	-12.1%
COc1ccc(NC(=O)N2C[C@@H]3C[C@@H](C2)c2cccc(=O)n2C3)c(OC)c1	-3.1%	4.6%
COc1ccccc1NC(=O)C(Cc1ccccc1)NS(=O)(=O)c1cccc2nsnc12 (centres undefined)	-13.4%	-10.9%
CC12CCC(=O)N1C(C(=O)N1CCN(S(=O)(=O)c3ccc(Br)cc3Cl)CC1)CS2 (centres undefined)	-14.5%	-15.3%

# Next part
molecule	Vaccinia mCherry	Vaccinia Venus
CCN(CC(=O)Nc1ccc(NC(C)=O)cc1)C(=O)C1CC(=O)N(c2ccc3c(c2)OCCO3)C1 (centres undefined)	i	-9.5%
CC(C)CN1C(=O)C(=O)N(CC(=O)c2ccc3c(c2)OCO3)C1=O	-8.4%	-4.1%
CC(C)c1nnc(SCC(=O)N2CCN(C(=O)c3ccco3)CC2)n1N	-14.7%	-12.7%
CCOc1ccccc1NC(=O)Cn1nnc2sc3c(c2c1=O)CCC(C(C)(C)C)C3 (centres undefined)	-10.2%	-17.1%
N#Cc1cccc(NC(=O)CCc2ccc(S(=O)(=O)N3CCOCC3)cc2)c1	-3.9%	13.8%
Cc1ccc2cc(C#N)c(NCCNC(=S)NCCCN3CCOCC3)nc2c1	-16.0%	u
O=C(OCC(=O)N1CCN(C(=O)c2ccco2)CC1)c1ccccc1	3.0%	-2.6%
C[C@H](CO)N1C[C@H](C)[C@@H](CN(C)S(=O)(=O)c2ccc3c(c2)OCCCO3)OCc2cn(nn2)CCCC1=O	i	0.9%
CCN(c1ccc(Cl)cc1)S(=O)(=O)c1nnc(NC(=O)C2CCCCC2)s1	-22.9%	-23.3%

# Screens (PubChem)
